# Bioassay records deposited in PubChem by National Center for Advancing Translational Sciences (NCATS).
# gsp antagonist = gsp mutant antagonism | gsp-mutant cells, cAMP HTRF, 30 min; control for the full effect not named in the record | Potency, µM (top dose mostly 76.9 µM), without a hit: top-dose activity change, negative = inhibition, most hits filed as inhibitors | hit rate 0.4% among 340,000; active = falling curve of any shape with a large fitted effect; inconclusive = falling curve, mostly with a smaller effect; inactive = flat or rising curve; cell line not stated here;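 note: intracellular cAMP measured with PDE inhibitor Ro 20-1724 present during compound exposure; potency is the fitted concentration of half-maximal effect; % is set by controls: 0 for no effect and ±100 for the full control effect; nearly all actives have a fitted effect of over 65% in size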
#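 HTRF cAMP measurement after 30 min RT detection following 30 min, 37C compound treatment alongside […] (added as 300 uM solution) in G418-selected cells seeded at 2000/well and grown 16–24 h.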
# CtBP-E1A inh = inhibitors of CtBP/E1A interaction. AlphaScreen GST-E1A/His-CtBP binding, 1536-well; hits give low values; control for the full effect not named in the record. activity change, % (concentration not given with the values). hit rate 0.49% among 340,000; in the data active means activity change below about -65%; inconclusive means about -30% to -65%; inactive means above about -30%; note: % is set by controls: 0 for no effect and ±100 for the full control effect
#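 Steps: dispense buffer (Tris pH 8.0, NaCl 300 mM, TCEP 1 mM, BSA, Tween 20); add 5X protein mix (GST-E1A, His-CtBP, 125 nM each); pin 23 nL compound; 2 h at 37 °C, dark; add 5X beads (50 ug/mL); 1 h; read.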
# gsp ag = activates gsp, the McCune-Albright syndrome mutation; gsp mutant cells, cAMP HTRF, 30 min; control for the full effect not named in the record; hit rate 0.13% among 340,000; Potency, µM (doses to about 76.9 µM), inactives show at the top dose activation (cAMP increase), usual class: activators; AID 624287; active = well fitted activation curve with a large enough effect; inconclusive = small, poorly fitted or top-dose-only effect, or another doubt; inactive = no such curve, though single readings can be large or run the other way; cell line not stated here;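 note: phosphodiesterase inhibitor Ro 20-1724 added with compounds to block cAMP breakdown; potency is the fitted concentration of half-maximal effect; nearly all actives have a fitted effect of over 60% in size; about a fifth of the inactives were tested at one dose only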
#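 Cells stably selected in G418 were plated at 2000/well, grown 16-24 hr, then given compounds in DMSO with the PDE inhibitor […] (300 uM solution added) for 30 min at 37C; cAMP was read by HTRF.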
# ClpP mod = qHTS Assay for Activators of ClpP; ATP-dependent Clp protease proteolytic subunit (Bacillus subtilis (strain 168)), P80244; purified B. subtilis ClpP, FRET peptide cleavage, 20 min; Potency, µM (doses to about 57.5 µM), inactives show at the top dose activity change, negative = active; hit rate 1.9% among 340,000; AID 651965, 2013; active = well fitted falling curve with a large enough effect; inconclusive = small, poorly fitted or top-dose-only effect; inactive = no such curve, though single readings can be large or run the other way; note: potency is the fitted concentration of half-maximal effect; the source files actives as falling curves though it sought activators and does not explain the sign; nearly all actives have a fitted effect of over 65% in size; many hits overshoot -100%
# Target sequence (P80244 whole entry, looked up): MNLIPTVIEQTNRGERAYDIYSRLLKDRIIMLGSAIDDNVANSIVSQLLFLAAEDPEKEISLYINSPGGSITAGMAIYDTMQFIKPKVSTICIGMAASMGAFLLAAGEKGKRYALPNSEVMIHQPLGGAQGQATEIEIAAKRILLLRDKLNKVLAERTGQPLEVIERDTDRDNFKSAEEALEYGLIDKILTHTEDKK
#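 ClpP 10 microg/mL final, pH 8 Tris/KCl buffer with BSA, glycerol, Tween-20; compound pinned in; FRET-FV substrate; RT 20 min; Ex320/Em430; ΔFRET vs ADEP 5.8 microM, DMSO, no enzyme.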
# Sfp PPTase inh = inhibitors of Bacillus subtilis Sfp phosphopantetheinyl transferase; Biochemical Sfp PPTase activity, qHTS; hit rate 3.5% among 310,000; Q9F4F7; Potency, µM, inactives show max response, negative = inhibition, actives largely listed as inhibitors; active = well fitted inhibition curve with a large enough effect; inconclusive = small, poorly fitted or top-dose-only effect, or another doubt; inactive = no such curve, though single readings can be large or run the other way;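 note: the enzyme is Sfp with the accession as filed and its product quenches rhodamine fluorescence; potency is the fitted concentration of half-maximal effect; 0% = enzyme reaction without inhibitor and -100% = no enzyme wells; top concentration of the series not given in the record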
#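 Compounds were incubated with enzyme (final 15 nM) for 15 min at room temperature before substrate addition started the reaction. Fluorescence at 525 nm excitation, 598 nm emission was recorded immediately and after 30 minutes.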
# Menin-MLL FL inh = inhibitors of human menin-MLL interaction, wild-type MLL peptide. FP activity change, % at 61.4 µM. 290,000 tested, under 10 active. Fluorescence polarization, fluorescein-MLL peptide displacement from menin; inconclusive = falling polarisation curve, or a change in total fluorescence; inactive = total fluorescence flat and polarisation flat or rising; no compound was filed as active; the % refers to the polarisation; negative = inhibition;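 note: % of control where 0% means no effect; inhibitors lower the polarisation; unlabelled MLL peptide was the positive control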
# TRPV1 PAM = potentiators of human vanilloid receptor 1 (TRPV1). Q8NER1. potentiation, % at 8.33 µM. TRPV1-expressing cells, Fluo-8 calcium influx, capsaicin EC20 potentiation; host cell line not named in the record; control for the full effect not named in the record. hit rate 0.02% among 320,000. AID 540277; active means potentiation above 80%; inconclusive means 30% to 80%; inactive means below 30%; note: 0% is about no effect
# Target sequence (Q8NER1 whole entry, looked up): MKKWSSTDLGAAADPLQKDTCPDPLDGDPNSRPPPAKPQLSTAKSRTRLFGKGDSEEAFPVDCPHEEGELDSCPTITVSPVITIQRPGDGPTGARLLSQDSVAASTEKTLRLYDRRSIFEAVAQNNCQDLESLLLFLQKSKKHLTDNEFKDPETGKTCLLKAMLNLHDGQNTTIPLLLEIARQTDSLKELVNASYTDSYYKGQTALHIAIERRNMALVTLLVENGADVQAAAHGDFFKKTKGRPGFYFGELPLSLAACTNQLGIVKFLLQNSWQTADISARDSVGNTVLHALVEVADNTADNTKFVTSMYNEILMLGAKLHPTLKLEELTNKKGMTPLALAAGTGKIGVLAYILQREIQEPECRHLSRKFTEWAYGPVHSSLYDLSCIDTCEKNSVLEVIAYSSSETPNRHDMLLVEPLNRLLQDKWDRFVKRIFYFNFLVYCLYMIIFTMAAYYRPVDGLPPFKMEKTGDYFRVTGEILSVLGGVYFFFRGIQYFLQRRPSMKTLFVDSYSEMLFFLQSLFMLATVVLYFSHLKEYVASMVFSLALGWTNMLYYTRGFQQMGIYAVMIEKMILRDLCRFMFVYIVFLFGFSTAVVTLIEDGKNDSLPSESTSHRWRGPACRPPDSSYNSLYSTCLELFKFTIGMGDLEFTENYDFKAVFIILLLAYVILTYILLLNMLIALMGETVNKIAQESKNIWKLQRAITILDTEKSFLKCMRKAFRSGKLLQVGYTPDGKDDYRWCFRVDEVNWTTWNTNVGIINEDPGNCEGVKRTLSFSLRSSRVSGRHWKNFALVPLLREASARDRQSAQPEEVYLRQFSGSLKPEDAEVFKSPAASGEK
#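 TRPV1-expressing cells were cultured overnight at 35.5C and loaded with Fluo-8 calcium dye for 40 to 90 min at room temperature. After a 10 s baseline, compound was added and calcium influx was read kinetically for 3 min (ex 480/em 520 nm).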
# An asterisk follows results filed as active; ? = inconclusive; / = no result given; & = joins results of further samples; ! = repeats disagree; [ ] = remark or other dose.
# Codes: A = gsp antagonist; B = CtBP-E1A inh; C = gsp ag; D = ClpP mod; E = Sfp PPTase inh; F = Menin-MLL FL inh; G = TRPV1 PAM
COC(=O)c1c(NC(=O)CCNCc2ccco2)sc2c1CCC2
  A: 8%	B: -12	C: 4%[15.4 µM]	D: /	E: -22%	F: 1.3	G: -5
CNc1c([N+](=O)[O-])cnn1-c1ccc(F)cc1
  A: 13%	B: 20	C: 9%[15.4 µM]	D: /	E: 8%	F: -1.1	G: -2
CCC(=O)N1CCc2cc(S(=O)(=O)CCC(=O)Nc3cccc(C)n3)ccc21
  A: 9%	B: 4	C: 50%	D: 0.7%	E: 1%	F: -0.3	G: -22
C=CCN1C(=O)[C@]2(c3ccccc31)C1CCCC=C1C(C#N)=C(N)C2(C#N)C#N (stereo not given in full)
  A: 5%	B: ?	C: 20%	D: 0.0%	E: -11%	F: 26	G: -16
Cc1nnc(SCC(=O)NNC(=O)c2ccc(Br)cc2)n1C
  A: 3%	B: 0	C: ?	D: /	E: 12%	F: 0.7	G: -1
N=C(N)SCc1nc2ccccc2c(=O)n1-c1ccccc1
  A: 7%&-13%	B: -83*!	C: 6%	D: -22%&0.3%	E: 50µM*	F: 12&20	G: ?
CCCCC(C(=O)O)C(C)CC(=O)Nc1nncs1 (stereo not given)
  A: 8%	B: -5	C: 31%	D: -2.6%	E: 12%	F: 3.8	G: 7
COc1ccc(S(=O)(=O)N2CCN(c3nc4ccccc4nc3-n3nc(C)cc3C)CC2)cc1
  A: /	B: /	C: /	D: /	E: 6%	F: 0.5	G: -4
O=C(Cn1nc(-c2ccc3c(c2)OCCO3)ccc1=O)Nc1ccc(N2CCOCC2)cc1
  A: /	B: /	C: /	D: /	E: 10%	F: 1.6	G: -4
CCC(C(=O)Nc1c2c(nn1C(C)(C)C)CS(=O)(=O)C2)c1ccccc1 (stereo not given)
  A: 15%	B: 8	C: -2%	D: 0.8%	E: 19%	F: /	G: 2
O=C(O)c1cccc2c1/C(=N/Nc1ccc([N+](=O)[O-])cc1[N+](=O)[O-])c1ccccc1-2
  A: 14%	B: ?	C: 27%	D: 1.2%	E: 3%	F: -7.1	G: -2
C=CCOc1ccc(C(=O)Nc2ccc(OCC)cc2)cc1
  A: 4%	B: 7	C: 5%	D: /	E: 5%	F: 1.7	G: -12
COc1ccc(C2(C)NC(=O)N(CC(=O)Nc3ccc4ccccc4c3)C2=O)cc1OC (stereo not given)
  A: -23%	B: -2	C: 15%[15.4 µM]	D: /	E: /	F: /	G: ?
COC(=O)c1sc(N2C(=O)C(O)=C(C(=O)c3ccc(C)o3)C2c2cccs2)nc1C (stereo not given)
  A: -33%	B: 0	C: ?	D: -4.0%	E: ?	F: 11	G: 8
O=[N+]([O-])c1ccc2c(c1)C(N1CCOCC1)/C(=C/C1(O)CCCCC1)O2 (stereo not given)
  A: -11%	B: -3	C: 9%	D: /	E: -11%	F: 1.5	G: 3
COc1ccc(Cn2nnnc2C(c2ccc(C)cc2)N2CCN(C3CCCC3)CC2)cc1 (stereo not given)
  A: -5%	B: -24	C: 1%	D: 1.4%	E: 14%	F: 2.7	G: 6
C=CCSc1nnc2c(n1)OC(c1ccco1)Nc1ccccc1-2 (stereo not given)
  A: -2%	B: ?	C: 14%	D: 0.0%	E: -17%	F: -1.4	G: 1
CCCCN(C)Cc1c(C)[nH]c2ccc(OCC)cc2c1=O
  A: 3%	B: -20	C: 18%	D: 3.7%	E: 5%	F: -0.4	G: 15
O=C(NNC1CC(=O)N(c2ccc(Cl)cc2)C1=O)c1ccco1 (stereo not given)
  A: 4%	B: /	C: 0%	D: 1.4%	E: 17%	F: -4.0	G: -9
CCC(C)N1CC(C(=O)O)CC1=O (stereo not given)
  A: 4%	B: -7	C: 18%	D: 1.0%	E: 27%	F: 2.2	G: -2
COc1ccccc1N1CCN(C(CNS(=O)(=O)c2cc(F)ccc2F)c2cccnc2)CC1 (stereo not given)
  A: -3%	B: -5	C: 1%	D: -0.8%	E: -6%	F: 3.3	G: -1
Cc1ccccc1OCCC(=O)OCC(=O)NC1CCS(=O)(=O)C1 (stereo not given)
  A: -1%	B: 7	C: -9%	D: 0.3%	E: /	F: /	G: 0
Cc1cccc(N(Cc2cc3cc(C)ccc3[nH]c2=O)C(=O)c2cccs2)c1
  A: -7%	B: /	C: -3%	D: -13%	E: 13%	F: 5.4	G: -4
Cc1ccccc1NS(=O)(=O)c1cccc(-c2nnc(-c3ccccc3)o2)c1
  A: -21%	B: -15	C: ?	D: -5.1%	E: -4%	F: -0.6	G: 29
CCN(CC)S(=O)(=O)c1ccc(NC(=O)CN(c2ccc(OC)cc2OC)S(C)(=O)=O)cc1
  A: -31%	B: -1	C: 14%	D: 4.2%	E: 5%	F: 5.0	G: 28
COc1ccc(S(=O)(=O)NNC(=O)Nc2ccc(F)cc2F)c(OC)c1
  A: 6%	B: -5	C: 7%[15.4 µM]	D: -0.8%	E: 4%	F: 1.5	G: -3
O=C(CN1C(=O)c2ccccc2S1(=O)=O)Nc1ccc(S(=O)(=O)N2CCCCCC2)cc1
  A: -2%	B: -2	C: -31%[inhibitor]	D: 0.6%	E: 24%	F: -2.3	G: -7
O=C(Oc1ccc2c(-c3ccccc3)cc(=O)oc2c1)C1CCCCC1
  A: 5%	B: 6	C: 9%	D: -9.2%	E: -10%	F: 3.6	G: -3
CC1CNc2c(cccc2S(=O)(=O)N[C@@H](CCCN=C(N)N)C(=O)N2CC[C@@H](C)C[C@@H]2C(=O)O)C1 (stereo not given in full)
  A: /	B: /	C: /	D: /	E: 12%	F: -2.1	G: -5
CCCCC1(C2CCCC2)NC(=O)NC1=O (stereo not given)
  A: 10%	B: 9	C: ?	D: /	E: /	F: /	G: /

# As a working copy, part of the list above.
# Codes: A = gsp antagonist; B = CtBP-E1A inh; C = gsp ag; D = ClpP mod; E = Sfp PPTase inh; F = Menin-MLL FL inh; G = TRPV1 PAM
COc1ccc(Cn2nnnc2C(c2ccc(C)cc2)N2CCN(C3CCCC3)CC2)cc1 (stereo not given)
  A: -5%	B: -24	C: 1%	D: 1.4%	E: 14%	F: 2.7	G: 6
C=CCSc1nnc2c(n1)OC(c1ccco1)Nc1ccccc1-2 (stereo not given)
  A: -2%	B: ?	C: 14%	D: 0.0%	E: -17%	F: -1.4	G: 1

# Carrying on:
# Codes: A = gsp antagonist; B = CtBP-E1A inh; C = gsp ag; D = ClpP mod; E = Sfp PPTase inh; F = Menin-MLL FL inh; G = TRPV1 PAM
CCc1c(C(=O)c2ccc(Cl)cc2)oc2c(C)c3oc(=O)cc(C)c3cc12
  A: 7%	B: 2	C: ?	D: -0.9%	E: -4%	F: 1.1	G: -8
CN1C/C(=C/c2ccncc2)C(=O)/C(=C/c2ccncc2)C1
  A: 11%	B: 24	C: ?	D: /	E: 2%	F: -6.7	G: 18
COc1cc(CN2CCC(n3nccc3NC(=O)c3ccccc3OC)CC2)ccc1F
  A: -10%	B: -1	C: -6%	D: 1.3%	E: 4%	F: -18	G: -6
CCCCNC(=O)CNC(=O)c1nn(-c2ccc(OC)c(OC)c2)c(=O)c2ccccc12
  A: /	B: 1	C: ?	D: 0.0%	E: /	F: /	G: /
O=C(Cc1cccs1)N1CCN(c2ccc(F)cc2)CC1
  A: -7%	B: -2	C: 18%	D: -1.6%	E: 4%	F: 3.0	G: -20
CC(C)CCNC(=O)c1cc2c(=O)n3ccccc3nc2s1
  A: 6%	B: -7	C: ?	D: /	E: 0%	F: -2.8	G: 4
CC1CCN(CCC(=O)Nc2ccc(Br)cc2)CC1
  A: 5%	B: 12	C: -18%	D: -0.1%	E: /	F: /	G: /
Oc1ccccc1-c1cc(-c2ccc(Cl)cc2)n[nH]1
  A: -5%	B: 20	C: -7%	D: -2.2%	E: 16%	F: -1.4	G: -7
O=C(NCc1ccco1)c1cc(-c2cccnc2)nc2ccc(Cl)cc12
  A: -12%	B: -23	C: ?	D: 2.2%	E: 4%	F: 5.8	G: 0
COc1ccc(CCC(=O)Nc2ccccc2C(F)(F)F)cc1
  A: 6%	B: 14	C: 7%	D: -2.1%	E: -4%	F: 1.2	G: -6
CC1C(=O)C(C)C(c2ccc([N+](=O)[O-])cc2)NC1c1ccc([N+](=O)[O-])cc1 (stereo not given)
  A: 4%	B: -7	C: -12%[15.4 µM]	D: /	E: 0%	F: -2.5	G: -3
CC(=O)Cc1nsc(NC(=O)c2ccc(F)cc2)n1
  A: -3%	B: 7	C: -5%	D: 0.8%	E: 20%	F: -0.5	G: 3
O=C(Nc1ccc(F)c([N+](=O)[O-])c1)C1CCCO1 (stereo not given)
  A: -5%	B: 7	C: 8%[15.4 µM]	D: /	E: /	F: /	G: /
Cc1ccc(N(CC(=O)NC2CCCCC2)S(=O)(=O)c2c(C)noc2C)cc1
  A: -4%	B: 4	C: ?	D: /	E: 23%	F: -5.7	G: -17
COc1ccc(S(=O)(=O)N2CCCCCC2)cc1C(=O)Nc1ccccn1
  A: -4%	B: 5	C: -11%[15.4 µM]	D: -2.9%	E: 9%	F: /	G: -17
O=C(Oc1ccc(F)c(F)c1)c1ccc2c(=O)n3c(nc2c1)CCC3
  A: ?	B: 0	C: 3%[15.4 µM]	D: /	E: /	F: /	G: 2
CCOC(=O)C1=C(C)NC(=O)NC1c1ccc(OCC(=O)Nc2ccccc2)c(OC)c1 (stereo not given)
  A: -10%	B: -2	C: 3%	D: 0.3%	E: -1%	F: 0.2	G: -4
Cc1cccc(NC(=O)COC(=O)CCc2ccccc2)c1C
  A: 0%	B: 0	C: 3%[15.4 µM]	D: -0.2%	E: 10%	F: -0.8	G: -6
CC(C)(C)OC(=O)NCCCCCNC(=O)c1[nH]cnc1C(=O)Nc1nccs1
  A: 9%	B: -77*	C: 0%	D: 0.2%	E: /	F: /	G: 1
COc1ccccc1C(=O)NC(C)c1ccccc1 (stereo not given)
  A: 3%	B: 36	C: 29%	D: -0.5%	E: 9%	F: 1.7	G: 6
CCOC(CCn1c(SCc2ccc([N+](=O)[O-])cc2)nc2ccccc2c1=O)OCC
  A: 13%	B: -18	C: -11%	D: ?	E: 5%	F: 3.6	G: 6
Clc1cccc(N/N=C/c2ccc(N3CCOCC3)s2)c1
  A: -3%	B: -7	C: 14%	D: 0.8%	E: ?	F: 5.8	G: -1
